Source: PubChem (National Center for Advancing Translational Sciences (NCATS))
MARV entry inh = blocks Marburg virus binding to or entry into cells | Marburg virus pseudotyped entry inhibition, cell reporter; control for the full effect not named in the record; about a third of the inactives were read at about 46 µM | Potency, µM (series often up to 37.8 µM), for the others: at the highest dose activity change, negative = inhibition, usual class: inhibitors | actives 1.8% (n = 300,000) | AID 540276; active = well fitted inhibition curve with a large enough effect; inconclusive = small, poorly fitted or top-dose-only effect, or effect the other way; inactive = flat fitted curve, though single readings scatter; tested in HEK293 cells; about a fifth of its hits are not listed in these tables; note: % is set by controls: 0 for no effect and ±100 for the full control effect; luciferase read-out
Lassa entry inh = inhibitors of Lassa virus binding or cell entry. Lassa virus pseudotype entry inhibition, cell reporter; control for the full effect not named in the record. actives 1.2% (n = 300,000). Potency, µM (top dose mostly 37.9 µM), for the others: top-dose activity change, negative = inhibition, actives largely listed as inhibitors; active means well fitted inhibition curve with a large enough effect; inconclusive means small, poorly fitted or top-dose-only effect, or effect the other way; inactive means flat fitted curve, though single readings scatter; tested in HEK293 cells; note: % is set by controls: 0 for no effect and ±100 for the full control effect; nearly all actives have a fitted effect of over 50% in size; luciferase read-out
NS1 inh = inhibitors of influenza NS1 protein function. S. cerevisiae slowed by influenza A NS1, growth recovery by OD600. Potency, µM (titrated, usually from 46.1 µM), inactives show at the top dose activity, positive = more growth. actives 0.4% (n = 270,000). AID 2326; active means well fitted rising curve with a large enough effect; inconclusive means small, poorly fitted or top-dose-only effect; inactive means no such curve, though single readings can be large or run the other way; note: nearly all actives have a fitted effect of over 50% in size
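OD600 was taken as the measure of yeast growth restored by compound in an NS1-expressing S. cerevisiae strain. Cells had been washed out of glucose medium and diluted 1:100 into galactose -URA medium, pH 6.0.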
Cruzain noTriton = cruzain (T. cruzi) inhibition without detergent; purified cruzain, Z-FR-AMC fluorescence, no detergent; Potency, µM, inactives show max response, negative = inhibition, most hits filed as inhibitors; actives 2.3% (n = 200,000);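 note: plate controls were enzyme without inhibitor for no effect and buffer without enzyme for full effect; nearly all actives have a fitted effect of over 40% in size; top concentration of the series not given in the record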
Target sequence (P25779 123-467 limits assumed): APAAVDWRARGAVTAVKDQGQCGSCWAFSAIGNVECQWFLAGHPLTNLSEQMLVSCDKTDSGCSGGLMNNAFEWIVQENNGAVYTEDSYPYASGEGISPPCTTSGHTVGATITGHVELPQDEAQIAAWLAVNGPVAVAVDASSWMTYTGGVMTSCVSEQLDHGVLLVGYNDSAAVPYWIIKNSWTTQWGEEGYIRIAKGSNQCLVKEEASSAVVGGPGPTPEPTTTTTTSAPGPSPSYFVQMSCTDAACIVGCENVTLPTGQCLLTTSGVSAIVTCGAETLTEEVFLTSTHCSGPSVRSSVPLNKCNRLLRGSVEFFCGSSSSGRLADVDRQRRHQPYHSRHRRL
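Purified cruzain at 1.5 nM, pre-incubated 15 min with compound at room temperature in 100 mM sodium acetate pH 5.5, 5 mM DTT, 0.00005% Triton X-100. Reaction started with 2 uM Z-FR-AMC; AMC fluorescence increase over 60 s gives rate.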
Cruzain inh Det = blocks cruzain activity in presence of Triton detergent | Potency, µM, for inactives: max response, negative = inhibition, usual class: inhibitors | P25779 | purified cruzain, Z-FR-AMC fluorescence, 0.01% Triton | actives 0.43% (n = 200,000);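 note: plate controls were neutral wells for no effect and buffer without enzyme for full effect; nearly all actives have a fitted effect of over 40% in size; top concentration of the series not given in the record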
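Detergent-containing run (0.01% Triton X-100) in acetate buffer pH 5.5 with 5 mM DTT: enzyme at 1.5 nM final, 15 min compound preincubation at room temperature, then 2 uM Z-FR-AMC substrate. Activity taken as 60 s fluorescence increase at 360/450 nm.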
SARS PLP yeast = blocks SARS-CoV papain-like protease in a yeast assay; S. cerevisiae expressing SARS-CoV PLpro, growth rescue; control for the full effect not named in the record; Potency, µM (top dose mostly 32.9 µM), for the others: top-dose activity, positive = growth rescue; actives 0.19% (n = 330,000); AID 485353; active means well fitted rising curve with a large enough effect; inconclusive means small, poorly fitted or top-dose-only effect; inactive means no such curve, though single readings can be large or run the other way; note: 0% is about no effect; nearly all actives have a fitted effect of over 55% in size; growth read by luminescence after 48 h
RE007 growth inh = less growth of the S. pombe RE007 Vpr strain; actives 0.21% (n = 360,000); Potency, µM (series often up to 92.2 µM), without a hit: top-dose activity change, negative = less growth; S. pombe RE007 Vpr strain, BacTiter-Glo ATP luminescence, 24 h; control for the full effect not named in the record; AID 651644; active = well fitted falling curve with a large enough effect; inconclusive = small, poorly fitted or top-dose-only effect; inactive = no such curve, though single readings can be large or run the other way;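 note: % is set by controls: 0 for no effect and ±100 for the full control effect; nearly all actives have a fitted effect of over 50% in size; the assay follows cell death caused by Vpr and the record does not say whether a fall means rescue or toxicity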
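Fission yeast strain RE007, carrying one chromosomally integrated HIV-1 vpr copy, was seeded at OD 0.01 in PMG+AL medium with 23 nL pinned compound. After 24 h at 30 °C and 99% humidity, viability was read by BacTiter-Glo luminescence.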
StopGo reporter = FMDV 2A StopGo reporter, luciferase signal; human cells with a luciferase reporter of 2A StopGo recoding; control for the full effect not named in the record; Potency, µM (highest dose often 57.9 µM), for inactives: at the highest dose signal change, negative = less light; actives 1.2% (n = 410,000); AID 1159524; active = well fitted falling curve with a large enough effect; inconclusive = small, poorly fitted or top-dose-only effect; inactive = no such curve, though single readings can be large or run the other way; tested in HEK293T cells; note: % is set by controls: 0 for no effect and ±100 for the full control effect; nearly all actives have a fitted effect of over 45% in size; luciferase light after 4 h
Active calls of the source: *; & = joins results of further samples; [ ] = dose if it differs, or a comment. Unless noted, calls come from the whole dose curve; as a rule, active = well fitted curve in the direction sought with a large enough effect; inconclusive = small, poorly fitted or top-dose-only effect, or another doubt; inactive = no such curve, though single readings can be large; an effect the other way counts as inactive or inconclusive. Potency is the fitted concentration of half-maximal effect. Not a hit list; about 4.7% have a hit in one of these screens.

What do the screens show for `COc1ccc(NC(=O)c2n[nH]c(=O)c3ccccc23)cc1S(=O)(=O)N1CCCCC1`?
MARV entry inh: inconclusive; Lassa entry inh: inconclusive; NS1 inh: 14%; Cruzain noTriton: -12%; Cruzain inh Det: -0.3%; SARS PLP yeast: -8%; RE007 growth inh: 3%; StopGo reporter: inconclusive

Results for Cc1c(NC(=O)C2CCCNC2=O)c(=O)n(-c2ccccc2)n1C (stereo unspecified) ?
MARV entry inh: inconclusive; Lassa entry inh: -1%; NS1 inh: -5%; Cruzain noTriton: -14%; Cruzain inh Det: 6.6%; SARS PLP yeast: 4%; RE007 growth inh: 3%; StopGo reporter: 2%

What do the screens show for `CC(C)C(=O)Nc1nnc(SCC(=O)Nc2ccc3c(c2)OCCO3)s1`?
MARV entry inh: -5%[46.1 µM]; Lassa entry inh: 13%; SARS PLP yeast: -2%; RE007 growth inh: -2%; StopGo reporter: -2%

How did COc1ccccc1N1CCN(C(=O)C2CCN(S(=O)(=O)c3cn(C)cn3)CC2)CC1 do in these assays?
Lassa entry inh: 12%[46.1 µM]; Cruzain noTriton: 2%; Cruzain inh Det: 1.3%; StopGo reporter: -14%

Results for CC(C)c1cc(C(F)(F)F)n2nc(C(=O)Nc3ccc(-n4cnnn4)cc3)cc2n1 ?
NS1 inh: inconclusive; SARS PLP yeast: 1%; RE007 growth inh: -2%; StopGo reporter: -14%

Results for Cc1cc(C)n(CCc2nc3c4ccccc4n(CC#N)c(=O)n3n2)n1 ?
MARV entry inh: inconclusive; Lassa entry inh: 4%; NS1 inh: -1%; Cruzain noTriton: -12%; Cruzain inh Det: 7.2%; SARS PLP yeast: 3%; RE007 growth inh: -16%; StopGo reporter: 5%

How did O=c1[nH]cccc1-c1nc2ccccc2n1Cc1ccc(Cl)cc1 do in these assays?
NS1 inh: -5%; SARS PLP yeast: 1%; RE007 growth inh: -6%; StopGo reporter: -23%

Results for CC1=CN2C(=N)/C(=C/c3cn(CCCOc4ccccc4C)c4ccccc34)C(=O)N=C2S1 ?
MARV entry inh: inconclusive; Lassa entry inh: inconclusive; NS1 inh: 10%; Cruzain noTriton: 3.2µM*; Cruzain inh Det: 0.6%; SARS PLP yeast: 1%; RE007 growth inh: 7%; StopGo reporter: 17%

What do the screens show for `Cc1cccc(C2C3=C(CCCC3=O)N=C3c4ccccc4C(=O)C32)c1` (stereo unspecified)?
NS1 inh: -20%; SARS PLP yeast: 0%; RE007 growth inh: 3%; StopGo reporter: -5%

What do the screens show for `CC1CCc2sc(C(=O)N/N=C/c3ccc([N+](=O)[O-])cc3)cc2C1` (stereo unspecified)?
MARV entry inh: inconclusive; Lassa entry inh: -1%; NS1 inh: -1%; Cruzain noTriton: -4%; Cruzain inh Det: -12%; SARS PLP yeast: -2%; RE007 growth inh: 0%; StopGo reporter: -22%

Results for CC(C)c1ccc(NC2CCCN(C(=O)CCN3CCCC3=O)C2)cc1 (stereo unspecified) ?
MARV entry inh: 7%; Lassa entry inh: inconclusive; NS1 inh: 1%; SARS PLP yeast: -2%; RE007 growth inh: -6%; StopGo reporter: -21%

How did Cc1ccc(C(=O)O)cc1NC(=S)NC(=O)c1ccc(-c2ccc(Cl)cc2)o1 do in these assays?
NS1 inh: 6%; SARS PLP yeast: 1%; RE007 growth inh: 7%; StopGo reporter: 0%

What do the screens show for `COCC1CCCCN1C(=O)c1ccc2oc(CCCc3ccccc3)nc2c1` (stereo unspecified)?
MARV entry inh: inconclusive; Lassa entry inh: inconclusive; NS1 inh: -17%; SARS PLP yeast: -9%; RE007 growth inh: 13%; StopGo reporter: 30%

Results for COc1cc(NS(=O)(=O)c2ccc(Cl)cc2)c(C(=O)O)cc1OC ?
MARV entry inh: 9%; Lassa entry inh: -14%; NS1 inh: 5%; Cruzain noTriton: -1%; Cruzain inh Det: -2.6%; SARS PLP yeast: 3%; RE007 growth inh: 20%; StopGo reporter: -9%

How did O=C1C2CC=C(Cl)CC2C(=O)N1CN(Cc1ccco1)CN1C(=O)C2CC=C(Cl)CC2C1=O (stereo unspecified) do in these assays?
MARV entry inh: -5%&-5%; Lassa entry inh: 18%; NS1 inh: 15%; Cruzain noTriton: inconclusive; Cruzain inh Det: -1.3%; SARS PLP yeast: -1%; RE007 growth inh: 2%; StopGo reporter: -13%

How did COc1ccc(N2CCN(Cc3nc4ccccc4[nH]3)CC2)cc1 do in these assays?
MARV entry inh: inconclusive; Lassa entry inh: 7%[46.1 µM]; NS1 inh: -13%; SARS PLP yeast: -2%; RE007 growth inh: 8%; StopGo reporter: -16%

Results for CCc1n[nH]c(=S)n1/N=C/c1c[nH]c2ccc(Br)cc12 ?
MARV entry inh: 3%[14.2 µM]; Lassa entry inh: inconclusive; SARS PLP yeast: -5%; RE007 growth inh: -6%; StopGo reporter: -17%

How did CCOC(=O)c1ccc(NC(=O)COc2cc(=O)n(CC)c3ccccc23)cc1 do in these assays?
NS1 inh: 2%; Cruzain noTriton: inconclusive; Cruzain inh Det: -6.6%; SARS PLP yeast: 4%; RE007 growth inh: 15%; StopGo reporter: -5%

How did CC(C)CC(NC(=O)OC(C)(C)C)C(=O)NC(C(=O)N1CCCC1C(N)=O)C(C)C (stereo unspecified) do in these assays?
MARV entry inh: -14%&-14%; Lassa entry inh: 1%; NS1 inh: 3%; Cruzain noTriton: 4%; Cruzain inh Det: -1.5%; SARS PLP yeast: 10%; RE007 growth inh: -6%; StopGo reporter: -22%

Results for Cc1cc(SCc2cc(=O)[nH]c3ccccc23)nc2ccccc12 ?
MARV entry inh: inconclusive; Lassa entry inh: -15%; NS1 inh: -5%; Cruzain noTriton: inconclusive; Cruzain inh Det: 0.2%; SARS PLP yeast: 3%; RE007 growth inh: 0%; StopGo reporter: -16%

How did N#Cc1c(-c2ccco2)cc(-c2ccccc2)[nH]c1=O do in these assays?
NS1 inh: 13%; SARS PLP yeast: 1%; RE007 growth inh: 3%; StopGo reporter: -6%

Results for Cc1ccc(S(=O)(=O)C2(C(=O)NC3CCCCC3C)CC2)cc1 (stereo unspecified) ?
MARV entry inh: 14%[46.1 µM]; Lassa entry inh: 3%; SARS PLP yeast: 7%; RE007 growth inh: -7%; StopGo reporter: 26%

Results for CCn1c(CNC(=O)COc2ccc(C(C)C)cc2)nnc1SCC(=O)Nc1cc(F)ccc1C ?
MARV entry inh: -21%; Lassa entry inh: -15%; NS1 inh: 9%; Cruzain noTriton: inconclusive; Cruzain inh Det: -7.4%; SARS PLP yeast: -1%; RE007 growth inh: -1%

Results for CNC(=O)[C@@H]1C[C@H]1[C@@H](NC(=O)CNC(=O)OCc1ccccc1)c1ccccc1 ?
Cruzain noTriton: -3%; Cruzain inh Det: 2.6%; RE007 growth inh: 0%; StopGo reporter: -1%

What do the screens show for `CC(=O)Nc1cccc(Oc2nc(-c3ccccn3)nc3ccccc23)c1`?
MARV entry inh: inconclusive; Lassa entry inh: 3%; NS1 inh: -2%; SARS PLP yeast: 3%; RE007 growth inh: -4%; StopGo reporter: inconclusive

Results for O=c1oc2ccccc2cc1-c1csc(Cc2nc(-c3ccc(Cl)cc3)cs2)n1 ?
MARV entry inh: inconclusive; Lassa entry inh: inconclusive; NS1 inh: 11%; Cruzain noTriton: 10µM*; Cruzain inh Det: -1.5%; SARS PLP yeast: -9%; RE007 growth inh: -27%; StopGo reporter: inconclusive

Results for Cc1ccc(C)c(NC(=O)c2cnn(-c3cccc(F)c3)c2C2CCN(C(=O)OC(C)(C)C)CC2)c1 ?
Lassa entry inh: inconclusive; Cruzain noTriton: 13%; Cruzain inh Det: -9.8%; StopGo reporter: 0%

What do the screens show for `N=C1C(c2nc3ccccc3s2)=C(O)CN1NC(=O)c1c[nH]c2ccccc12`?
MARV entry inh: inconclusive; Lassa entry inh: 12%[46.1 µM]; NS1 inh: 3%; SARS PLP yeast: 0%; RE007 growth inh: -4%; StopGo reporter: -1%

What do the screens show for `O=Cc1ccc(-n2cc(C=O)c3ccccc32)cc1`?
MARV entry inh: 0%[46.1 µM]; Lassa entry inh: -22%; SARS PLP yeast: -1%; RE007 growth inh: -11%; StopGo reporter: -4%

What do the screens show for `O=C(CCCC(=O)OCC(F)(F)C(F)F)Nc1nccs1`?
MARV entry inh: 25%; Lassa entry inh: 10%; NS1 inh: inconclusive; Cruzain noTriton: 3%; Cruzain inh Det: -3.5%; SARS PLP yeast: 0%; RE007 growth inh: -7%

What do the screens show for `O=C(C1CCCN(S(=O)(=O)c2cnc[nH]2)C1)N(CCc1ccccc1)Cc1ccccc1` (stereo unspecified)?
MARV entry inh: -2%; NS1 inh: -14%; Cruzain noTriton: inconclusive; Cruzain inh Det: 1.0%; SARS PLP yeast: 8%; RE007 growth inh: 1%; StopGo reporter: -8%

What do the screens show for `COc1ccc(-c2c(C#N)c(N)nc3c2CCCC3)cc1OC`?
MARV entry inh: 23%; Lassa entry inh: -13%; NS1 inh: -2%; RE007 growth inh: 0%; StopGo reporter: 12%

Results for COc1ccc(O)c(/C=N/c2nc3ccccc3n2C)c1 ?
MARV entry inh: -2%; Lassa entry inh: -2%; NS1 inh: 21%; SARS PLP yeast: 6%; RE007 growth inh: 2%; StopGo reporter: -4%

How did Cc1cc(Cn2ccnc2)c(C)cc1Cn1ccnc1 do in these assays?
MARV entry inh: -11%&-11%; Lassa entry inh: 20%; NS1 inh: 0%; Cruzain noTriton: -3%; Cruzain inh Det: -2.5%; SARS PLP yeast: -2%; RE007 growth inh: 10%; StopGo reporter: 3%

Results for CCc1cc(C(=O)N=Nc2c(O)[nH]c3ccc([N+](=O)[O-])cc23)c2ccccc2n1 ?
MARV entry inh: -3%[46.1 µM]; Lassa entry inh: inconclusive; NS1 inh: inconclusive; Cruzain noTriton: -27%; Cruzain inh Det: -14%; SARS PLP yeast: 14%; RE007 growth inh: -11%; StopGo reporter: inconclusive

What do the screens show for `CCCN(CC(=O)Nc1c(C)cccc1CC)C(=O)SCC`?
MARV entry inh: -11%; Lassa entry inh: -8%; NS1 inh: 1%; Cruzain noTriton: 0%; Cruzain inh Det: 1.3%; SARS PLP yeast: 12%; RE007 growth inh: -3%; StopGo reporter: -3%
